# ClpP mod – qHTS Assay for Activators of ClpP; 340,000 tested, 1.9% active; Potency, µM (highest dose often 57.5 µM), for the others: top-dose activity change, negative = active; AID 651965, 2013; purified B. subtilis ClpP, FRET peptide cleavage, 20 min; active = well fitted falling curve with a large enough effect; inconclusive = small, poorly fitted or top-dose-only effect; inactive = no such curve, though single readings can be large or run the other way; also: the source files actives as falling curves though it sought activators and does not explain the sign; nearly all actives have a fitted effect of over 65% in size; many hits overshoot -100%
# Target sequence (P80244 whole entry, looked up): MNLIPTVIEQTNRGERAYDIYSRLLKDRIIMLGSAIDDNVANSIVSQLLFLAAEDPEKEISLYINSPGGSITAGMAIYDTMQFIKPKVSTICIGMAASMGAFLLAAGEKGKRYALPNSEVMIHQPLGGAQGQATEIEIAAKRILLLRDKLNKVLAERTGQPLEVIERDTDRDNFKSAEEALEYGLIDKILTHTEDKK
#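 FRET quenching reversal measured ClpP activation: 10 microg/mL B. subtilis ClpP at pH 8 with the FRET-FV decapeptide, read at 430 nm after 320 nm excitation. The 20-min minus 0-min signal was scaled between DMSO/no-enzyme wells and ADEP (5.8 microM final).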
# An asterisk follows results filed as active; ? = inconclusive. Potency is read from the fitted curve at half-maximal effect. Some of the compounds tested, so the mix of outcomes need not match the whole.
> COc1cccc2sc(N(Cc3cccnc3)C(=O)C3COc4ccccc4O3)nc12 (stereo unspecified)
  ClpP mod: 0.0%
> COc1cc(CNC(=O)c2ccc3c(c2)N(C)C(=O)C2CCCCN32)cc(OC)c1OC (stereo unspecified)
  ClpP mod: -2.6%
> COc1ccc(-n2nc(C(=O)N3CCC(C)CC3)c3c4ccccc4n(C)c3c2=O)cc1Cl
  ClpP mod: -14%
> Cc1c(Cl)cccc1NC(=O)CCn1c(=O)c2cccn2c2ccccc21
  ClpP mod: -8.4%
> Cc1cccc(C(=O)Nc2ccccc2OCc2cc(=O)n3ccccc3n2)c1
  ClpP mod: 4.3%
> CC(=O)c1cccc(NC(=O)CC(c2ccc(C)cc2)N2Cc3ccccc3C2=O)c1 (stereo unspecified)
  ClpP mod: -11%
> COc1cccc(-c2cn3c(n2)sc2cc(C(=O)NCCC4=CCCCC4)ccc23)c1
  ClpP mod: 4.3%
> Cc1ccc(CNS(=O)(=O)c2cc3c(cc2Cl)NC(=O)CO3)o1
  ClpP mod: 1.0%
> Cc1ccc(C)c(CSC2=NC(C)(C)Nc3ccccc32)c1
  ClpP mod: -21%
> O=C(Nc1ccccc1Cl)N1CCC2(CC1)Oc1ccccc1C(=O)N2Cc1ccc(F)cc1
  ClpP mod: -1.2%
> Cc1ccc(Cn2c(C(=O)O)c(CNCc3cccs3)c3ccc(C)cc32)cc1
  ClpP mod: ?
> COc1ccccc1CNC(=O)c1ccc(N2CCCC2)c(NC(=O)NCc2ccccc2)c1
  ClpP mod: ?
> Cc1ccccc1CNC(=O)c1cccc(NC(=O)N2CCSc3ncccc32)c1
  ClpP mod: 32µM*
> COc1ccc(Oc2nc3c(c(=O)n(C)c(=O)n3C)n2Cc2ccccc2Cl)cc1
  ClpP mod: -4.7%
> COc1ccc(CNC(=O)Cn2nc(N3CCN(c4ccccc4)CC3)ccc2=O)c(OC)c1
  ClpP mod: -2.7%

> CC1CCN(C(=O)Cn2cc(SCC(=O)NCc3ccccc3)c3ccccc32)CC1
  ClpP mod: -3.6%
> Oc1ccc(Cl)cc1Nc1nc2ccccc2n2cnnc12
  ClpP mod: -0.7%
> CCC(C)n1c(=N)c(C(=O)NCc2ccccc2)cc2c(=O)n3cc(C)ccc3nc21 (stereo unspecified)
  ClpP mod: 3.7%
> CN(C(=O)c1c[nH]c2ccc(S(=O)(=O)Nc3cccc(C(F)(F)F)c3)cc2c1=O)C1CCCCC1
  ClpP mod: -27%
> Cc1nn2c(=O)cc(COC(=O)c3ccccc3NC(=O)C(C)Oc3ccccc3)nc2s1 (stereo unspecified)
  ClpP mod: ?
> CCc1cccc(C)c1Nc1c(-c2cccc(O)c2)nc2cnccn12
  ClpP mod: -23%
> CSc1cccc(NC(=O)CN2C(=O)COc3ccc(S(=O)(=O)N4CCC(C)CC4)cc32)c1
  ClpP mod: -0.4%
> COc1ccc(N(CC(=O)NCc2ccccc2Cl)S(=O)(=O)c2c(C)nn(C)c2C)cc1
  ClpP mod: -0.1%
> COc1ccc(-c2cc3ccc(O)c(CN4CCOCC4)c3oc2=O)cc1
  ClpP mod: 4.3%
> COc1ccc(Nc2cc(C(=O)NCCc3ccc(C)cc3)c3ccccc3n2)c(OC)c1
  ClpP mod: 2.3%
> CCOc1ccc(CNCc2c(C(=O)O)n(Cc3ccc(C)cc3)c3cc(C)ccc23)cc1
  ClpP mod: -24%
> c1ccc(-c2ccc(-c3csc4ncnc(Sc5nnnn5-c5ccccc5)c34)cc2)cc1
  ClpP mod: -14%
> COc1ccc2c(Sc3ccc(C)cc3)c(C(=O)NCc3ccc(F)cc3)[nH]c2c1
  ClpP mod: -3.0%
> COc1ccccc1NC(=O)c1cnn(-c2ccccc2)c1-n1cccc1
  ClpP mod: -15%
> COCCCNC(=O)C1CCN(c2nnc(-n3cccc3CNc3ccc(C)cc3)s2)CC1
  ClpP mod: -0.3%

> O=C(CCC(=O)N1CC2CCCN2c2ccccc21)NCc1ccc(F)cc1 (stereo unspecified)
  ClpP mod: -8.6%
> COc1ccc(NC(=O)Cn2c(SCc3ccc(F)cc3)nc3cccnc32)cc1OC
  ClpP mod: -28%
> CC12CN3CC(c4ccccc4)(CN(C1)C3c1ccc(Cl)cc1)C2=O (stereo unspecified)
  ClpP mod: 0.3%
> CCOc1ccc(NC(=O)N2CCN3CCCCC3C2)cc1 (stereo unspecified)
  ClpP mod: 0.2%
> Clc1ccc2c(c1)-c1c(cnc3cc(-c4ccccc4)nn13)CO2
  ClpP mod: -0.5%
> Cc1c(C(=O)Nc2ccc(F)cc2F)oc2c1-c1nn(Cc3c(F)cccc3Cl)cc1CC2
  ClpP mod: -16%
> O=C(Cn1c(=O)n(CC2CCC(C(=O)NCCc3ccccc3)CC2)c(=O)c2ccccc21)Nc1ccccc1 (stereo unspecified)
  ClpP mod: -3.1%
> COC(=O)c1ccccc1NC(=O)CSc1nc2ccccc2nc1Cc1ccc(F)cc1
  ClpP mod: 0.8%
> Cc1nn2c(=O)cc(COC(=O)c3cccc(NC(=O)c4ccc(C(C)(C)C)cc4)c3)nc2s1
  ClpP mod: -14%
> CS(=O)(=O)c1ccc(C(=O)OCC(=O)N2CCc3ccccc32)cc1[N+](=O)[O-]
  ClpP mod: -2.7%
> Clc1cccc(-n2ncc3c(Nc4ccc5c(c4)OCCO5)ncnc32)c1
  ClpP mod: -3.0%
> COc1ccc(CC(=O)Nc2ccc3nc(Nc4cccc(Cl)c4)cc(C)c3c2)cc1OC
  ClpP mod: 3.7%
> CSc1nn(CC(=O)Nc2cc(C)ccc2C)c(N)c1S(=O)(=O)c1ccccc1
  ClpP mod: -2.0%
> Cc1ccc(Cl)cc1N1CCN(C(=O)c2cc3ccc4cccnc4c3[nH]2)CC1
  ClpP mod: -6.2%
> CCc1nc2cccnc2n1-c1ccc(CC(=O)Nc2cccc(C)c2C)cc1
  ClpP mod: -7.5%

> COc1ccc(NC(=O)Cn2nnnc2-c2ccccc2F)c(C)c1
  ClpP mod: -0.4%
> COc1ccc(C2C=C(c3ccc(Cl)cc3)Nc3nc(-c4ccc(Cl)cc4)nn32)cc1 (stereo unspecified)
  ClpP mod: 1.9%
> Cc1cc(=O)n2nc(N3CCC(C(=O)Nc4ccc(C(C)C)cc4)CC3)sc2n1
  ClpP mod: -2.9%
> CCOc1ccccc1CNCCSc1nnnn1C
  ClpP mod: -1.1%
> CCc1c(C)c2ccc(O)c(CN3CCN(c4cc(Cl)ccc4C)CC3)c2oc1=O
  ClpP mod: 4.4%
> CC/C(=C/c1ccccc1)c1cc(Oc2ccccc2)cc2oc3ccccc3c12
  ClpP mod: 4.1%
> COc1cccc(C(c2sc3nc(-c4ccco4)nn3c2O)N2CCC(C)CC2)c1 (stereo unspecified)
  ClpP mod: 0.6%
> CCC(=O)N1CCc2cc(S(=O)(=O)CCC(=O)N3CCN(c4cc(C)ccc4C)CC3)ccc21
  ClpP mod: -0.6%
> CC(=O)c1ccc(NC(=O)CSc2cn(CC(=O)N3CCCCCC3)c3ccccc23)cc1
  ClpP mod: -1.4%
> Cc1ccc2c(=O)c(C(=O)c3ccc(F)cc3)cn(CC(=O)Nc3ccc4c(c3)OCCO4)c2n1
  ClpP mod: 1.8%
> Cc1ccc(C2c3c(-c4ccccc4O)n[nH]c3C(=O)N2CCc2ccccc2)cc1 (stereo unspecified)
  ClpP mod: -5.4%
> CN(Cc1ccccc1)S(=O)(=O)c1ccc2[nH]c3c(c2c1)CCCCC3
  ClpP mod: ?
> O=C1CSC2(C(=O)N(Cc3cccc(F)c3)c3ccccc32)N1c1cccc(C(F)(F)F)c1 (stereo unspecified)
  ClpP mod: -8.1%
> O=C(NCCc1ccccc1)c1nn(-c2ccccc2Cl)nc1CO
  ClpP mod: -0.3%
> COc1ccc(CCNc2ncnc3nc[nH]c23)cc1
  ClpP mod: 0.7%

smiles,ClpP mod
CCOC(=O)C1CCC(CN(Cc2ccc(Cl)cc2)S(=O)(=O)c2ccc(Br)cc2)CC1 (stereo unspecified),0.4%
COc1ccccc1C(=O)Nc1ccc(S(=O)(=O)Nc2nc(C)cc(C)n2)cc1,-6.2%
COc1ccccc1NC(=O)c1cc(S(=O)(=O)N(C)C2CCCCC2)ccc1F,-5.7%
Cc1ccc(C)c(CSc2cn(CCNC(=O)c3ccccc3F)c3ccccc23)c1,-2.1%
CCOc1ccc(C2CC(=O)c3c([nH]c(C(=O)OCC4CCCCC4)c3C)C2)cc1 (stereo unspecified),-0.2%
Cc1cc2nc(-c3cccc(NC(=O)CSc4ccc(Cl)cc4)c3)oc2cc1C,?
Cc1ccc(Cc2cnc(NC(=O)C3Cc4ccc(C)cc4C(=O)O3)s2)cc1 (stereo unspecified),0.2%
O=C(COc1ccc(F)cc1)Nc1ccccc1OCc1cc(=O)n2ccccc2n1,?
Cn1c(=O)[nH]c(=O)c2c1nc(NCCO)n2CC(O)COc1ccccc1 (stereo unspecified),-0.6%
O=C(Nc1cccc(Cl)c1)N1CCC(CN2CCOCC2)CC1,0.7%
CCOC(=O)c1sc2ccccc2c1S(=O)(=O)N1CCN(c2cccc(C)c2)C(C)C1 (stereo unspecified),-0.6%
CCc1nn(CC(=O)NCCc2ccc(Cl)cc2)c(=O)c2cc3c(OC)cccc3n12,4.4%
CCCCCn1c(=O)[nH]c2cc(C(=O)Nc3cc(C)cc(C)c3)ccc2c1=O,-5.2%
CCOc1ccc(-c2cc3c(=O)n(CC(=O)NCc4ccc(Cl)cc4)ccn3n2)cc1,9.8%
Cc1ccc(S(=O)(=O)c2c(Nc3cc(F)ccc3F)sc(C(=O)c3ccc(F)cc3)c2N)cc1,-23%
CC(C)c1ccc(-c2nc(C(N)=O)c3c(n2)n(-c2ccc4c(c2)OCO4)c(=O)n3C)cc1,5.8%
Cc1cc(Nc2cccc(Cl)c2)nc2ccc(NC(=O)c3cncc(Br)c3)cc12,-6.1%
CCOc1ccc(N(CC)S(=O)(=O)N2CCCC(C(=O)NCc3ccccc3Cl)C2)cc1 (stereo unspecified),-4.2%
Cn1c(=O)c(C(=O)O)nn(-c2ccccc2)c1=O,?
CCCCN(CCCC)CCCNC(=O)c1ccc2nc(N3CCCCC3)sc2c1,-11%

smiles,ClpP mod
COc1ccc(N2CCN(C(CNC(=O)c3c(F)cccc3F)c3ccc4c(c3)OCO4)CC2)cc1 (stereo unspecified),-4.4%
COc1cc2c(cc1OC)C(COc1cc(C)cc(C)c1)N(C(=O)C(C)(C)C)CC2 (stereo unspecified),2.9%
CCOC(=O)Cc1ccc(NC(=O)N2CCOc3ccc(C)cc32)cc1,0.4%
COc1cc(OC)c(NC(=O)N2CCc3cc(OC)c(OC)cc3C2CC(=O)O)cc1Cl (stereo unspecified),-11%
O=C(NCC1CCN(Cc2cccc(Cl)c2)CC1)c1cc2ccc3cccnc3c2[nH]1,-1.9%
O=C(Cc1ccc(-c2ccccc2)cc1)NCCS(=O)(=O)N1CCN(c2ccccc2)CC1,-3.2%
CN(C)S(=O)(=O)c1ccc2c(c1)N(CC(=O)Nc1ccc(OC(F)(F)F)cc1)C(=O)CS2,-0.9%
Cc1cccc(C)c1NC(=O)c1nc(SC(C)C)ncc1Cl,1.2%
O=[N+]([O-])c1cc(-c2nc(-c3ccccc3)no2)ccc1NCc1cccnc1,-0.5%
Cc1ccc(OCc2nc(-c3ccc(C(=O)N4CCN(c5ccccc5F)CC4)cc3)oc2C)cc1,0.7%
COc1ccc(-c2[nH]ncc2C(=O)NCc2ccc(F)cc2)cc1,-1.4%
Cn1nnc2c(N3CCN(c4ccccc4Cl)CC3)ncnc21,-1.7%
CCc1nn(CC(=O)NCCOC)c(=O)c2cc3cc(F)ccc3n12,-20%
Cc1ccc(-c2nc(S(=O)(=O)c3ccccc3)c(N3CCN(c4ccccc4)CC3)o2)cc1,?
Cc1ccc(/C=C/c2onc(C)c2S(=O)(=O)N2CCC(C(=O)Nc3ccc(C)c(N(C)C)c3)CC2)cc1,-3.8%
COc1cc(NC(=O)c2nnn(CC(=O)Nc3ccccc3)c2N)cc(OC)c1,7.0%
CCc1ccc(NC(=O)C2CCN(c3cc(C)nc4c(-c5ccc(Cl)cc5)c(C)nn34)CC2)cc1,0.6%
Cn1nc(-c2ccccc2)c(-c2ccccc2)c(C(=O)Nc2ccc(S(N)(=O)=O)cc2)c1=O,-2.3%
O=C(CSC1=Nc2ccccc2N=C(c2ccc(F)cc2)C1)Nc1cccc(C(F)(F)F)c1,-3.1%
CCN(CC)C(=O)c1cc(-c2ccc(Cl)cc2)on1,-3.2%

smiles,ClpP mod
COc1ccc(-c2[nH]ncc2C(=O)NCc2ccccc2OC)cc1,-1.9%
CC1=C(c2ccc(C(C)C)cc2)S(=O)(=O)N=C1N1CCC(C(=O)NCCc2ccco2)CC1,-3.2%
COc1ccc(-c2nnc(SCC(=O)Nc3ccc(C(C)C)cc3)nc2-c2ccc(OC)c(OC)c2)cc1OC,-11%
CC(C)Cc1nn2c(=O)cc(COC(=O)c3ccc(NC(=O)CCc4ccccc4)cc3)nc2s1,-15%
COc1cc(OC)c(NC(=O)N2CCc3c(sc4c3CCCC4)C2c2ccccc2)cc1Cl (stereo unspecified),-2.3%
COC(=O)c1ccc(CSc2nc3c([nH]c4ccccc43)c(=O)n2-c2ccc(OC)cc2)o1,-10%
O=C(O)c1ccc(CNc2ncnc3nc[nH]c23)cc1,-1.7%
